Sa ugtP lethal – kills S. aureus RN4220 lacking UgtP; 0.54% of 330,000 active; S. aureus RN4220 ugtP deletion, OD600 growth, 16 h; some inactives read as strong as hits; growth inhibition, % (concentration not given with the values);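 active = z-score under -3 and OD600 up to 0.15 on both plates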;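 also: plate controls were untreated wells for no effect and antibiotic for full effect; wells of about 80 µL received 100 nL stock; the first replicate is given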
Mtb hypoxia inh – reduces hypoxia-regulated biosensor signal in M. tuberculosis. M. tuberculosis hypoxia-regulated fluorescent reporter, fluorescence. fluorescence inhibition, % (test concentration not listed). 0.1% of 300,000 active. AID 1159583;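 active = 35 to 45% if threefold the growth effect, above 45% if 1.5-fold the growth effect; inactive = the rest, general growth blockers included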;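 also: wells of about 50 µL received 100 nL stock; 0% = vehicle wells and 100% = reference inhibitor wells; whole bacteria with a GFP reporter of the hypoxia response; strong numbers were not always called active; many hits fall short of the cut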
PrP UTR inh – suppresses PrP 5' UTR mRNA reporter expression. cell-based PrP 5' UTR mRNA reporter, plate reader. inhibition, % (test concentration not listed). 0.35% of 340,000 active;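 active = every replicate at 50% or more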;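 also: 0 = median of the neutral control wells; tested in H4 reporter cells; numbers are from one replicate; inactives centre near -14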
RN4220 kill – S. aureus RN4220 growth inhibition; inhibition, % (concentration not given with the values); OD600, 16 h; 0.33% of 330,000 active;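 active = z-score of -3 or lower and OD600 up to 0.18 on both plates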;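 also: plate controls were untreated cells for no effect and reference antibiotic for full effect; stock transfer was 100 nL into about 80 µL; one replicate is shown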
BJeLR lethal – kills HRASV12-expressing BJeLR cells | BJeLR (HRASV12) viability, CellTiter-Glo ATP luminescence, 48 h; reference of the scale not given here | inhibition, % (no concentration beside the values) | 0.17% of 300,000 active | AID 1554;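 active = replicate mean above 50%; inconclusive = above 50% but judged a plate artefact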;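 also: 50 nL library stock added to about 25 µL; numbers are from one replicate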
Bead autofluor – counter-screen for toxin protease inhibitors: compound fluorescence. fluorescence intensity (test concentration not listed). 3.1% of 360,000 active. compound autofluorescence counterscreen, microsphere flow cytometry; hits give high values. AID 624483;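 active = at least 3 SD above the mean of all compounds, about 16000 in these data; inconclusive = too few beads counted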;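 also: 100 nL of 1 mM stock went into each well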
Mtb hypoxia inh growth – further read-out of Mtb hypoxia inh, marked with its call; growth inhibition, %; measured here: M. tuberculosis growth (absorbance);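 0% = vehicle and 100% = reference antibiotic; read after six days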
Active calls of the source: *; ? = inconclusive; . = no result given. Outcome played no part in choosing rows; about 4% have a hit in one of these screens.

no.	SMILES	Sa ugtP lethal	Mtb hypoxia inh	Mtb hypoxia inh growth	PrP UTR inh	RN4220 kill	BJeLR lethal	Bead autofluor
1	CCn1cc(C(=O)OCC(=O)Nc2cccc(S(=O)(=O)N3CCOCC3)c2)c(=O)c2ccc(C)nc21	2	2	1	-10	7.5	7	16363*
2	NNC(=O)CN1C(c2ccc(Cl)cc2)=Nc2ccc(Br)cc2C1c1ccccc1 (stereo not drawn)	-4	4	1	-15	-2.5	-19	3987
3	Cc1cc(NC(=O)CSc2nc3c(c(=O)n2-c2ccc(Cl)cc2)SCC3)no1	21	-6	-8	-23	2.2	-5	8265
4	COCc1ccc(CN2CCCC(C(=O)Nc3ccccc3-c3ccc(OC)cc3)C2)o1 (stereo not drawn)	5	6	1	-4	1.6	-10	6288
5	CN(C)c1ccc(-c2ccc(C3C4C=CCC[C@@]4(C)C(=O)N3Cc3ccccc3)c(F)c2)cc1 (stereo partly drawn)	8	7	15	.	-0.1	.	.
6	Cc1nnc(NC(=O)c2oc3ccccc3c2C)s1	9	4	4	-54	5.7	-4	4453
7	COC(=O)c1[nH]c2ccc(C)cc2c1NC(=O)C(C)N1CCN(C2CCCCC2)CC1 (stereo not drawn)	-1	13	12	-7	-3.0	3	?
8	COc1ccccc1N1CCN(C(=O)C2CCCN(S(=O)(=O)c3ccc4c(c3)oc(=O)n4C)C2)CC1 (stereo not drawn)	0	2	4	-11	4.7	-9	6054

Compounds 6–8 from above:
no.	SMILES	Sa ugtP lethal	Mtb hypoxia inh	Mtb hypoxia inh growth	PrP UTR inh	RN4220 kill	BJeLR lethal	Bead autofluor
6	Cc1nnc(NC(=O)c2oc3ccccc3c2C)s1	9	4	4	-54	5.7	-4	4453
7	COC(=O)c1[nH]c2ccc(C)cc2c1NC(=O)C(C)N1CCN(C2CCCCC2)CC1 (stereo not drawn)	-1	13	12	-7	-3.0	3	?
8	COc1ccccc1N1CCN(C(=O)C2CCCN(S(=O)(=O)c3ccc4c(c3)oc(=O)n4C)C2)CC1 (stereo not drawn)	0	2	4	-11	4.7	-9	6054

The listing picks up; the 3 compounds before the break are reprinted first.
no.	SMILES	Sa ugtP lethal	Mtb hypoxia inh	Mtb hypoxia inh growth	PrP UTR inh	RN4220 kill	BJeLR lethal	Bead autofluor
6	Cc1nnc(NC(=O)c2oc3ccccc3c2C)s1	9	4	4	-54	5.7	-4	4453
7	COC(=O)c1[nH]c2ccc(C)cc2c1NC(=O)C(C)N1CCN(C2CCCCC2)CC1 (stereo not drawn)	-1	13	12	-7	-3.0	3	?
8	COc1ccccc1N1CCN(C(=O)C2CCCN(S(=O)(=O)c3ccc4c(c3)oc(=O)n4C)C2)CC1 (stereo not drawn)	0	2	4	-11	4.7	-9	6054
9	COc1ccc2nc(NC(=O)c3cccc(N4C(=O)CCC4=O)c3)sc2c1	-2	-3	2	-8	-2.4	.	3615
10	COc1ccc(-c2csc(NC(=O)CSc3ccc(Br)cc3)n2)c(OC)c1	-13	7	3	-12	-6.6	-8	2278
11	CC(=O)c1cnc(-c2ccccc2)s1	-8	-4	1	-21	10	-2	4140
12	COc1cc(OC)cc(C(=O)Nc2cccc(NC(=O)c3cc(OC)cc(OC)c3)n2)c1	-3	9	6	-19	1.0	6	.
13	O=c1c2ccccc2nc(-c2ccccc2)n1-n1cccc1	-1	8	6	4	1.4	8	2879
14	CS(=O)(=O)/C(C#N)=C/c1c(-c2ccccc2)nc2n1CCS2	-1	-3	16	-5	-0.3	0	.
15	Cc1ccc(C(C)C)c(OCC(=O)Nc2ccc3c(c2)nc(CN2CCCC2)n3C)c1	0	.	.	-13	-1.0	12	3318
16	CCc1ccc(CN2CCCC(CNC(=O)c3cccc(OC)c3OC)C2)cc1 (stereo not drawn)	8	1	1	-15	-0.2	6	4837

Looked up above.
In Sa ugtP lethal, cpd 9 reads -2
In Sa ugtP lethal, cpd 10 reads -13
In PrP UTR inh, cpd 15 reads -13
In Mtb hypoxia inh growth, cpd 3 reads -8
In BJeLR lethal, cpd 4 reads -10

(listing goes on)
no.	SMILES	Sa ugtP lethal	Mtb hypoxia inh	Mtb hypoxia inh growth	PrP UTR inh	RN4220 kill	BJeLR lethal	Bead autofluor
17	O=C(Nc1cccc(C(F)(F)F)c1)c1cncs1	-1	-12	-2	4	3.1	-3	4024
18	CNc1ccc(Cl)cc1C(N)=O	6	6	12	-26	5.2	-4	?
19	O=C(c1ccco1)N1CCN(c2ncnc3c(-c4ccccc4)nsc23)CC1	2	19	12	-62	0.6	4	3899
20	COc1ccc(-c2nn(-c3ccccc3)cc2C=CC(=O)N2CCOCC2)cc1[N+](=O)[O-]	1	6	-4	.	7.2	.	.
21	CC(=NNC(=O)C(O)c1ccccc1)c1ccc(C)s1 (stereo not drawn)	-1	-8	10	.	-2.4	.	.
22	CC(=NNC(=O)c1ccoc1C)c1cccc(NC(=O)C2CC2)c1	11	10	13	.	7.2	.	.
23	COc1ccc(C(=O)OC2CC3CCC(C2)N3C)cc1OC (stereo not drawn)	3	1	1	.	5.1	.	.
24	Cc1cc(NCCN2CCOCC2)c2ccc3ccccc3c2n1	-2	3	-1	-27	0.6	5	2348
25	COc1ccc(OC2C(=O)N(Cc3ccc(F)cc3)C2c2cc(OC)c(OC)c(OC)c2)cc1 (stereo not drawn)	9	6	0	-28	6.4	-2	2176
26	Cc1ccc(C(=O)O)cc1S(=O)(=O)Nc1ccccc1C(=O)NC1CC1	8	14	4	-19	4.2	.	6781
27	COc1cc(C(=O)OCC(=O)N2CCCC2)cc2c1OCCO2	1	9	1	-8	1.8	.	5788
28	O=C(CN1C(=O)c2ccccc2C1=O)N1CCN(c2nnc(-c3ccccc3)c3ccccc23)CC1	-6	-5	4	-15	0.2	3	6087
29	COc1ccccc1C1=CN(Cc2ccccc2)CCC1=O	-1	17	8	-7	2.0	.	3622
30	CCOC(=O)C(C(=O)Nc1nc2ccccc2s1)C1CCCCC1 (stereo not drawn)	-9	8	7	-21	-1.9	-11	8618
31	COc1ccc([C@H]2CC(=O)C=C(c3ccnc4ccc(Cl)cc34)C2)cc1	-8	8	4	1	-1.5	.	2866
32	O=C(NCc1cccc(C(F)(F)F)c1)c1ccc2c(c1)OCCO2	-2	-9	3	-2	0.6	-16	3729
33	Cc1cccc(C(=O)ON=Cc2c(N3CCOCC3)n(C)c3ccccc23)c1	7	24	37	.	0.4	.	.
34	CS(=O)(=O)N1CCN(c2ccnc3cc(Cl)ccc23)CC1	4	10	8	-8	5.9	-5	3701
35	CCc1cccc(CC)c1NC(=O)COC(=O)CC1c2ccccc2CCN1S(=O)(=O)c1ccccc1 (stereo not drawn)	4	10	1	2	3.2	-27	2565
36	Cc1cc2ncc(C(N)=O)cn2n1	-3	3	2	-16	5.3	6	3380

4 compounds from above, showing only Mtb hypoxia inh growth:
no. | molecule | Mtb hypoxia inh growth
33 | Cc1cccc(C(=O)ON=Cc2c(N3CCOCC3)n(C)c3ccccc23)c1 | 37
34 | CS(=O)(=O)N1CCN(c2ccnc3cc(Cl)ccc23)CC1 | 8
35 | CCc1cccc(CC)c1NC(=O)COC(=O)CC1c2ccccc2CCN1S(=O)(=O)c1ccccc1 (stereo not drawn) | 1
36 | Cc1cc2ncc(C(N)=O)cn2n1 | 2
